Assay outcomes as filed in PubChem.
eIF4H inh – inhibitors of RNA binding by human eIF4H; eIF4H fluorescence polarization binding assay; inhibition, % at 35 µM; hit rate 0.94% among 290,000; AID 2012;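 active = 50% or more with normal probe brightness, or confirmed in later tests; about a fifth of its hits are not listed in these tables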;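 also: calls also rest on retests at 20 µM and on dose response follow-up; 0% = protein and probe with vehicle and 100% = probe without protein; strong numbers were not always called active; many hits fall short of the cut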
Env fusion inh – blocks HIV Env-driven cell-cell fusion. HeLa-JRFL Env/CEM21 cell fusion, luciferase. inhibition, % at 12.3 µM. hit rate 1.1% among 360,000;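 active = mean replicate inhibition score of at least 50 and every replicate individually at or above 50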;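 also: 0% = plate neutral controls and 100% = maraviroc near 300 nM; one replicate is shown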
MT1-MMP act inh – inhibitors of human MT1-MMP activation; HT1080 RFP-PRO-GFP cells, GFP/RFP ratio fluorescence, overnight; percent of plate control window, DMSO zero; P50281; hit rate 0.061% among 360,000; GFP/RFP ratio change, % at 20 µM;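 active = GFP/RFP ratio change of at least 30% with cell ATP level not reduced by more than half and red fluorescence within 50% of control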; also: strong numbers were not always called active
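Assay system – RFP-PRO-GFP reporter HT1080 cells · Compound dosing – single dose of 20 µM compound, 1% DMSO final · Incubation – overnight compound exposure at 37 °C · Measure – GFP/RFP fluorescence ratio · Benchmarks – DMSO wells and RFP-L50D-GFP cells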
PABP polyA inh – blocks human PABP binding to poly(A) RNA | hit rate 1% among 290,000 | P11940 | inhibition, % at 35 µM | fluorescence polarization;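 active = 50% or more with normal probe brightness, or confirmed in later tests; about a fifth of its hits are not listed in these tables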;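 also: calls also rest on retests at 20 µM and on dose response follow-up; controls were probe without protein and protein plus probe with vehicle; some compounds called inactive have numbers as strong as hits; many hits fall short of the cut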
Target sequence (P11940 whole entry, looked up): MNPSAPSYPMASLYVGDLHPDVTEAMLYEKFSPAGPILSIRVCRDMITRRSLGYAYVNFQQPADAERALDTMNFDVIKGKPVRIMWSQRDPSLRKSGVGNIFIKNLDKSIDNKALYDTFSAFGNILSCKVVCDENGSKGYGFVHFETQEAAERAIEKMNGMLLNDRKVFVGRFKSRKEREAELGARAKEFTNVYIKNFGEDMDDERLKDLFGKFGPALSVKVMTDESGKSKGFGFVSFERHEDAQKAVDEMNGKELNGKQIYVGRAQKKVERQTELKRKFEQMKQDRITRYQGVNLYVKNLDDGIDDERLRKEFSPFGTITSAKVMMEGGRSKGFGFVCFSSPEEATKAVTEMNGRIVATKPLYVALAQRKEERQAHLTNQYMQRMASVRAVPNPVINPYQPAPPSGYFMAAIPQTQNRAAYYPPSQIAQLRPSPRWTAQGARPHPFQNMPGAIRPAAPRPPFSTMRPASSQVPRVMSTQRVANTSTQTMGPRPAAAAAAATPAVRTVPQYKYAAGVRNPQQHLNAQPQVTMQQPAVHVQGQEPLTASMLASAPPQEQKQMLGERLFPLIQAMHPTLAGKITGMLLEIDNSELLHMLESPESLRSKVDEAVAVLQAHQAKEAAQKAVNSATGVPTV
Rce1 inhib – inhibitors of yeast Ras-converting enzyme. Q03530. yeast membranes, quenched prenylated peptide cleavage fluorescence. calls only. hit rate 0.27% among 290,000;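 active = fall in fluorescence gain of 50% or more versus controls, with final raw signal at or below 3038400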;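 also: plate controls were neutral control wells for no effect and wells lacking membranes for full effect; tested at 10 µM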
Target sequence (Q03530 whole entry, looked up): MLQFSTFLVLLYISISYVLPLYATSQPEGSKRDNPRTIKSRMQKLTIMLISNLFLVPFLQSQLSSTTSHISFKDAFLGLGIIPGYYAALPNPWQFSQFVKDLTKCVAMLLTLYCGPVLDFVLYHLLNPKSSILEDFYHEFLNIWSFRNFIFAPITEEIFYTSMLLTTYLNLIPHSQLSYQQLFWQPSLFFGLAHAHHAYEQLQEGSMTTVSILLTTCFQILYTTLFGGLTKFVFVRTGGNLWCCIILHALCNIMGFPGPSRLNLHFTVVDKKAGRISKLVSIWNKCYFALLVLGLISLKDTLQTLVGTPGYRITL
Yeast UUG start – alters start codon recognition fidelity in yeast; S. cerevisiae UUG-firefly luciferase reporter, luminescence/redox ratio; activity score, % at 18.7 µM; hit rate 0.13% among 350,000;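 active = replicate mean at a twofold rise or more, about +100% in these data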;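 also: firefly luciferase made from a UUG start codon reports start codon fidelity; reporter light over untreated wells divided by growth signal over untreated wells; some hits fall short of that in this replicate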
CSC inhib – cancer stem cell inhibition. cancer stem cell-like cells viability, luminescence. inhibition, % at 7.5 µM. hit rate 1.1% among 300,000. AID 2717;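 active = mean at 75% or more and at least half the replicates too; tested in HMLE shEcad cells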;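 also: 0% = median of negative and 100% = median of positive control wells; the first replicate is given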
eIF4H inh retest – further read-out of eIF4H inh, marked with its call; inhibition, %; compound at 20 µM; confirmation average;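 mean of two retest wells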
PABP polyA inh retest – second read-out of PABP polyA inh, no call of its own (marks repeat the call); inhibition, %; compound at 20 µM; confirmation repeats;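 mean of two retest wells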
MT1-MMP act inh RFP – further read-out of MT1-MMP act inh, marked with its call; RFP signal change, %; measured here: RFP expression control read;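 0 = vehicle wells; hits needed this value within 50% of zero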
Starred values were filed as active, the others as inactive; i = inactive; · = no result given; & = joins results of further samples.

SMILES | eIF4H inh | Env fusion inh | MT1-MMP act inh | MT1-MMP act inh RFP | PABP polyA inh | Rce1 inhib | Yeast UUG start | CSC inhib | others
CCCCC1CCC(C(=O)OCC(=O)N(CCOC)c2c(N)n(Cc3ccccc3)c(=O)[nH]c2=O)CC1 (stereo unspecified) | · | -5 | 1 | 1 | · | i | · | 0
Cc1cccc(/C=N/NC(=O)C2CCCNC2=O)c1 (stereo unspecified) | 3 | · | -4 | 0 | 0 | i | · | -11
C/C(=N/Nc1nc(C)cc(-c2ccccc2)n1)c1ccco1 | -1 | -56 | 3 | -3 | -5 | i | -22 | 16
CCCNC(=O)C1(C)CCN1C(=O)Cc1ccc(C(C)C)cc1 (stereo unspecified) | · | -32 | -1 | 8 | · | · | 6 | ·
CC(=O)Nc1c([N+](=O)[O-])cc2c3c(cccc13)CC2 | · | 10 | 4 | 4 | · | · | -10 | ·
O=C(c1cccnc1)N(Cc1ccccc1)c1ccccc1 | 2 | · | -1 | 1 | -1 | i | -8 | -13
O=C(Nc1nncs1)c1ccc(Br)c(S(=O)(=O)N2CCCC2)c1 | -6 | -15 | -1 | 6 | 6 | i | -17 | ·
CN(C(=O)COC(=O)c1cc(S(=O)(=O)N2CCCCC2)ccc1N1CCOCC1)C1CCS(=O)(=O)C1 (stereo unspecified) | 3 | 3 | 3 | 1 | -10 | i | -5 | -15
O=C(OCc1ccccc1)N1Cc2ccnnc2CC1c1ccccc1Br (stereo unspecified) | · | 23 | 3 | -1 | · | · | -2 | ·
Cc1ccc(-n2c(Cc3cccs3)nnc2SCC(=O)Nc2ccc(S(N)(=O)=O)cc2)cc1 | -9 | -140 | -3 | -3 | -2 | i | -10 | -2
Cc1ccc(-c2nnn(CC(=O)N(CC(=O)NCC3CCCO3)c3ccc(F)c(Cl)c3)n2)o1 (stereo unspecified) | -6 | -71 | -4 | -1 | -4 | · | · | 9
CCOC(=O)c1sc2nc(C)nc(N3CCN(c4ncccn4)CC3)c2c1C | -4 | -75 | -2 | -3 | -10 | i | · | -3
CCn1c(SCC(=O)Nc2nc3ccccc3s2)nnc1-c1ccc(OC)cc1 | -6 | · | 1 | -4 | 8 | i | -9 | -5
COc1ccc2cc(C#N)c(NC(C)C)nc2c1 | -7 | -97 | 0 | -1 | -8 | i | -8 | -13
CC1CCCCC12NC(=O)N(CC(=O)NCc1ccccc1)C2=O (stereo unspecified) | · | 3 | -4 | 2 | · | · | -13 | -16
COc1ccccc1CCNC(=O)c1cccc(NC(=O)CC2SC(N3CCCCC3)=NC2=O)c1 (stereo unspecified) | · | 11 | 0 | 0 | · | · | -11 | ·
O=C(COC(=O)c1cccc(S(=O)(=O)N2CCN(c3ccccc3)CC2)c1)NCc1ccco1 | 67 | · | -3 | 0 | 24 | i | 0 | -4 | eIF4H inh retest=38;PABP polyA inh retest=29
CCOC(=O)c1c(-c2ccccc2)nc2c(C)cccn12 | -7 | -211 | 2 | -5 | 7 | i | 0 | 14
O=C1N/C(=N/N=C/c2ccc(F)cc2)SC1c1ccccc1 (stereo unspecified) | 0 | -38 | 4 | -3 | 5 | i | -5 | 2
CCOC(=O)N1CCN(S(=O)(=O)c2ccc(OCC)c3ccccc23)CC1 | -5 | · | -2 | -14 | 1 | i | -13 | -9

Brought forward from above: 2 entries, followed by the next part.
SMILES | eIF4H inh | Env fusion inh | MT1-MMP act inh | MT1-MMP act inh RFP | PABP polyA inh | Rce1 inhib | Yeast UUG start | CSC inhib | others
O=C1N/C(=N/N=C/c2ccc(F)cc2)SC1c1ccccc1 (stereo unspecified) | 0 | -38 | 4 | -3 | 5 | i | -5 | 2
CCOC(=O)N1CCN(S(=O)(=O)c2ccc(OCC)c3ccccc23)CC1 | -5 | · | -2 | -14 | 1 | i | -13 | -9
CCN(CC)C(=O)C1CCCN(C(=O)CCn2nnnc2CN2CCOCC2)C1 (stereo unspecified) | -9 | 4 | 1 | 2 | 9 | · | -24 | -15
C=CCOC(=O)C1=C(C)Nc2nnnn2C1c1ccc(OC)cc1OC (stereo unspecified) | -12 | 15 | -1 | 2 | -2 | i | -6 | 16
Cc1ccccc1CNC(=O)c1ccccc1SCC(=O)NCc1ccco1 | · | 3 | 1 | -7 | · | · | -21 | ·
Cc1ccc(C)c(Cn2nnc3c(=O)[nH]c(C4CCN(C(=O)c5ccco5)CC4)nc32)c1 | -14 | -13 | -2 | -5 | 12 | · | 10 | -6
CCOc1ccccc1CNCC1CCCO1 (stereo unspecified) | 0 | -7 | -4 | -2 | -3 | i | 2 | -11
O=C(CCN1C(=O)c2ccncc2C1=O)Nc1ccc(F)cc1 | -12 | -41 | 1 | 8 | -3 | i | · | -12
CCCC12CN3CC(CCC)(CN(C1)C3C(O)C(O)C(O)CO)C2=O (stereo unspecified) | -10 | · | 2 | 3 | -7 | i | -3 | 1
O=C(NC1CCN(C(=S)Nc2ccccc2)CC1)C1CCCCC1 | -5 | 8 | -2 | -3 | 5 | i | · | -15
N#C/C(=C\c1cccs1)C(=O)c1ccccc1 | 52 | -1 | 11 | 41 | 31 | i | · | -6 | eIF4H inh retest=7;PABP polyA inh retest=-3
Nc1ccc(S(=O)(=O)N2CCC(Cc3ccccc3)CC2)cc1 | 0 | -10 | 1 | -2 | -4 | i | -10 | 13
C/C(CC(=O)NCCN1CCOCC1)=N\NC(=O)c1ccncc1 | -2 | 6 | 0 | 6 | -12 | i | · | -5
COc1ccc(-c2nc(Cn3c(SCc4ccc(C)cc4)nc4ccncc43)c(C)o2)cc1OC | 5 | 26 | 6 | 1 | -14 | i | -27 | 12
O=C1CCCCCN1Sc1ccccc1 | -7 | · | -1 | -3 | -9 | i | -8 | 9
CC(=O)OCC(=O)Nc1c(C)cccc1C | 0 | 0 | 1 | 3 | -2 | i | · | -8
CCOc1ccccc1NC(=O)Cn1c(=O)c(OCC)nc2cnccc21 | -12 | · | 2 | 3 | 4 | i | -17 | -4
COc1ccnc(Oc2ccccc2)c1C#N | -6 | -15 | 1 | 3 | -7 | i | -10 | 7
CCc1ccccc1OCC(=O)OCC(=O)c1c(N)n(C)c(=O)n(C)c1=O | -4 | -3 | 2 | 1 | -7 | i | · | 0
Nn1c(COc2ccccc2F)nnc1SCC(=O)NC1CCCC1 | -2 | 3 | -2 | 1 | 0 | i | -21 | 0
CCCCc1nc(SCCN2CCOCC2)c2c(=O)n(C)c(=O)n(C)c2n1 | -5 | 9 | 1 | -1 | -6 | i | · | -22
O=S(=O)(c1ccccc1)N1CCCN(S(=O)(=O)c2ccccc2)CC1 | 3 | -8 | 1 | -1 | 3 | i | -5 | -7
O=C(Nc1c(Cl)ccc2nsnc12)c1cccnc1 | -6 | -8 | -2 | 2 | -2 | · | -18 | -20
CN(Cc1ccccn1)C(=O)CC1C(=O)NCCN1Cc1ccc(F)cc1Cl (stereo unspecified) | · | -9 | -3 | 1 | · | i | -6 | -12
O=C1CCC(c2ccccc2)c2ccccc21 (stereo unspecified) | · | -3 | 0 | 3 | · | i | -4 | 8
O=C(COC(=O)Cc1c(Cl)cccc1Cl)NCCC1=CCCCC1 | -1 | 2 | 2 | 4 | 0 | i | -12 | ·
C[C@H](CO)N1C[C@H](C)[C@@H](CN(C)C(=O)NC2CCCCC2)OCc2cnnn2CCCC1=O | · | 19 | 4 | 8 | · | · | -16&4&-9 | ·
COc1ccc(-c2csc3ncnc(N4CCN(c5cccc(Cl)c5)CC4)c23)cc1 | 5 | · | -4 | -5 | 6 | i | -8 | 36
C=CC[C@H](CC(=O)N(CCO)Cc1ccccc1)C(=O)N[C@H](COC(=O)[C@@H](CC=C)CC(=O)OC(C)(C)C)Cc1c[nH]c2ccccc12 | · | 64* | -2 | -17 | · | · | 11 | 3
COc1cc(C(=O)NNC(=O)c2ccc(NC(=O)C(C)(C)C)cc2)cc(OC)c1OC | -13 | -20 | 0 | 2 | 0 | i | -5 | -9
O=C1CN(C(=O)COC(=O)CCc2ccccc2O)c2ccccc2N1 | · | · | -2 | 2 | · | · | -8 | -8
CCOc1ccc(S(=O)(=O)N2CCC(C(=O)Nc3ccccc3N3CCCC3)CC2)cc1 | · | 6 | 1 | -5 | · | · | -17 | ·
COc1ccc(-c2cc(C(=O)OCC(=O)Nc3ccc4c(c3)OCO4)c3ccccc3n2)cc1 | -2 | 19 | 5 | 2 | -2 | i | -16 | 5
Cc1cc(NC(=O)Cn2ccsc2=N)c([N+](=O)[O-])cc1C | 20 | 1 | 2 | 1 | 5 | · | · | -5
CCCn1c(CNS(=O)(=O)c2ccc(C)cc2)nc2ccccc21 | 3 | 4 | 3 | 0 | -5 | i | -21 | -5
CCc1ccc(N2C(=O)CC(N(CC3CCCO3)C(=O)/C=C/C(=O)O)C2=O)cc1 (stereo unspecified) | 68 | · | 0 | 4 | 4 | i | 4 | 14 | eIF4H inh retest=41;PABP polyA inh retest=30
CC(C)N(C(=O)COC(=O)[C@@H]1CC(O)CN1S(=O)(=O)c1ccccc1[N+](=O)[O-])C(C)C (stereo partly specified) | 4 | -28 | 2 | 5 | -8 | i | · | -7
COc1ccc(NC(=S)N(CCc2c(C)[nH]c3ccccc23)Cc2ccco2)cc1 | -14 | 0 | 2 | -4 | -7 | i | -5 | -1
CS(=O)(=O)c1ccc2nc(NC(=O)C3CC(=O)N(c4ccccc4)C3)sc2c1 (stereo unspecified) | -6 | 16 | -8 | -3 | -2 | i | 1 | -2
CCOC(=O)CNC(=O)C1COc2ccccc2O1 (stereo unspecified) | -9 | -11 | 0 | 1 | -7 | i | -6 | -9
O=C(OCC(=O)c1cccs1)c1ccc([N+](=O)[O-])o1 | -13 | 2 | 1 | 4 | 4 | i | -21 | -4
O=C(C(Cc1ccccc1)n1cccc1)N1CCCCCC1 (stereo unspecified) | 4 | 17 | -4 | -1 | 7 | i | -23 | 6
Cc1cc(Cl)n2c(nc3ccccc32)c1C#N | 7 | -56 | 21 | 5 | 1 | i | · | ·
COc1cc(CCC(=O)NCc2ccc(Cl)cc2)cc(OC)c1OC | -10 | -8 | 1 | 4 | 1 | i | 6 | -6
Cc1cc(Cl)c(S(=O)(=O)NC2CCCC2)cc1OCC(N)=O | 0 | -1 | 6 | 1 | 7 | i | -17 | -12
COc1ccccc1C(=O)NCC(c1cccnc1)N(C)C (stereo unspecified) | -6 | · | -3 | 2 | -6 | · | -2 | -8
Cc1ccc(NC(=O)c2cnc(N3CCN(c4ccccn4)CC3)c3ccccc23)c(Br)c1 | -4 | 45 | -3 | -19 | 0 | · | · | 14
O=C(CCNc1n[nH]c(=O)[nH]c1=O)N1CCOCC1 | -4 | -22 | -2 | 1 | -8 | i | -17 | -4
COCCN1C(=O)c2cc(C(=O)Nc3ccc(C)c(F)c3)ccc2C1Nc1ccc(C)c(F)c1 (stereo unspecified) | 7 | 34 | 0 | -1 | 7 | i | 5 | -4
CCCCC(=O)Nc1nc(C)c(C(C)=O)s1 | -3 | 1 | 0 | 3 | -2 | i | 0 | -16
Cc1c(-c2ccccc2)cnc2c(C)cccc12 | · | 2 | 6 | 3 | · | i | 3 | 9

Copied from the listing for reference:
SMILES | eIF4H inh | Env fusion inh | MT1-MMP act inh | MT1-MMP act inh RFP | PABP polyA inh | Rce1 inhib | Yeast UUG start | CSC inhib | others
COc1ccccc1C(=O)NCC(c1cccnc1)N(C)C (stereo unspecified) | -6 | · | -3 | 2 | -6 | · | -2 | -8
Cc1ccc(NC(=O)c2cnc(N3CCN(c4ccccn4)CC3)c3ccccc23)c(Br)c1 | -4 | 45 | -3 | -19 | 0 | · | · | 14
O=C(CCNc1n[nH]c(=O)[nH]c1=O)N1CCOCC1 | -4 | -22 | -2 | 1 | -8 | i | -17 | -4
COCCN1C(=O)c2cc(C(=O)Nc3ccc(C)c(F)c3)ccc2C1Nc1ccc(C)c(F)c1 (stereo unspecified) | 7 | 34 | 0 | -1 | 7 | i | 5 | -4
